Source: PubChem (National Center for Advancing Translational Sciences (NCATS))
GCN5L2 inh: GCN5L2 (KAT2A) acetyltransferase inhibition; Q92830; GCN5L2 HAT assay, ThioGlo1 CoA-SH fluorescence; Potency, µM (highest dose often 58.9 µM), for the others: at the highest dose activity change, negative = inhibition, most hits filed as inhibitors; hit rate 0.21% among 390,000; AID 504327; active means well fitted inhibition curve with a large enough effect; inconclusive means small, poorly fitted or top-dose-only effect, or another doubt; inactive means no such curve, though single readings can be large or run the other way
Target sequence (Q92830 whole entry, looked up): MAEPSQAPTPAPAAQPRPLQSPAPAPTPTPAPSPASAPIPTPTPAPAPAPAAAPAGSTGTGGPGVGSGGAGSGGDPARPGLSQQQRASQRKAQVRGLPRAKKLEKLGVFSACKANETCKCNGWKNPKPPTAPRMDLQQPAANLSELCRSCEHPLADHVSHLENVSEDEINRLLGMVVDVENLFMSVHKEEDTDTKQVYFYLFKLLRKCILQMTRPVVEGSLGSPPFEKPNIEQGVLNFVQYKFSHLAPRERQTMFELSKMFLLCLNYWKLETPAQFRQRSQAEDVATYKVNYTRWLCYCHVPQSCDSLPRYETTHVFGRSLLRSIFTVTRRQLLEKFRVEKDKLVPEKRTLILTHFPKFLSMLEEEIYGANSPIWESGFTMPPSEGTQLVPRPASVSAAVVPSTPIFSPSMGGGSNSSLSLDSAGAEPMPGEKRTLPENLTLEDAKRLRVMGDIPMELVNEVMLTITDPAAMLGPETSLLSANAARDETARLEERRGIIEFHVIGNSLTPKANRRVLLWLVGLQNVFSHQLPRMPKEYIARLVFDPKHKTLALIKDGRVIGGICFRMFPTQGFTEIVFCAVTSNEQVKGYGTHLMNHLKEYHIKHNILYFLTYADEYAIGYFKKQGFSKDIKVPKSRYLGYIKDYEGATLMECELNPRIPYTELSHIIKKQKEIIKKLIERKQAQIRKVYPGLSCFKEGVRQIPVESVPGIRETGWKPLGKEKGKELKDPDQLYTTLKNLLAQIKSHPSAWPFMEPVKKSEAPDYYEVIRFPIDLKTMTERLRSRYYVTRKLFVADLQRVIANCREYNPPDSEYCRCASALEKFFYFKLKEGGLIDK
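ThioGlo1-coupled HAT assay: 20nM GCN5L2, 70uM acetyl-CoA, 75uM H3(1-25) peptide, pH 7.5. Fluorescence read at 340/540nm at start and after 20 min at room temperature.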
* = called active by the depositor; ? = inconclusive; & = joins results of further samples. On the % scale 0 is the no-effect control and ±100 the full control effect; potency means the concentration at half of the fitted maximal effect.

molecule	GCN5L2 inh
COc1ccccc1N1CCN(C(=O)c2nn(-c3ccc(C)cc3)c(=O)n(C)c2=O)CC1	-4%
O=C(NCc1cccnc1)c1cccc(NS(=O)(=O)c2ccc(Br)cc2)c1	2%
O=C(Nc1ccc(Nc2ccccc2)cc1)C(Cl)(Cl)Cl	-10%
COc1cc(-c2ccc3c(=O)c4ccccc4sc3c2)cc(OC)c1OC	2%
CCCC1(C(=O)OCC)NC(c2ccc(N(C)C)cc2)C2C(=O)N(c3ccc4c(c3)OCCO4)C(=O)C21 (stereo unspecified)	-5%
CCC(C)NC(=O)CCCCCn1c(=O)[nH]c2cc(OC)c(OC)cc2c1=O (stereo unspecified)	2%
Cc1ccc(/C=N/NC(=O)CSc2ccccn2)o1	0%
Cn1nnc2c(NCc3ccc(Cl)cc3)ncnc21	0%
Cn1c2ccccc2c2cc(C(=O)N3CCN(CCO)CC3)sc21	-8%
CCCCCCc1c(C[C@H](N)C(=O)O)o[nH]c1=O	-1%&-8%
O=C(CCC(=O)N(CC(=O)NC1CCCC1)Cc1ccccc1Cl)Nc1nccs1	-4%
CC(=O)Nc1cnc2ccccc2n1	3%
CCOC(=O)c1c(N)nn(C(=O)C(C)C)c1-c1ccc(OC)cc1	4%
Cc1nnc(SCC(=O)N2c3ccccc3CC2C)[nH]c1=O (stereo unspecified)	1%
C/C=C(\C)C(=O)OC1c2c(ccc3ccc(=O)oc23)OC(C)(C)C1OC(C)=O (stereo unspecified)	-5%&-10%
NC1=NC(c2ccc(Br)cc2)n2c(nc3ccccc32)N1 (stereo unspecified)	-4%
CCCCSc1cc(=O)[nH]c(N)n1	-10%
O=C(Nc1ccc(Cl)c(Cl)c1)N1CCCCCC1	21%
COc1ccc(N(CC(=O)NCCSc2ccccc2)S(=O)(=O)c2ccccc2)cc1	-30%
CC(OC(=O)CCN=C1NS(=O)(=O)c2ccccc21)C(=O)NC1CCCCC1C (stereo unspecified)	-6%
Cc1cccc(-n2cc(-c3ccccc3)c3c(NN4CCOCC4)ncnc32)c1	-2%
CC(C)Cn1nc(C(=O)OCC(=O)NCC(F)(F)F)c2ccccc2c1=O	-2%
Cc1cc(C(F)(F)F)nc(SCC(=O)Nc2c(C)n(C)n(-c3ccccc3)c2=O)n1	-7%
Cc1ccccc1NC(=O)CCC(=O)OCC(=O)c1cccc([N+](=O)[O-])c1	-5%
COCCN(CCOC)S(=O)(=O)c1ccc(C(=O)Nc2nc(-c3ccccc3)c(C(=O)c3ccccc3)s2)cc1	-6%
COc1ccc(C(=O)Nc2cccc(C(C)=O)c2)cc1OC	0%
Cc1ccc(NC(=O)CCC(=O)NNC(=O)COc2ccccc2)c(C)c1	-3%
COc1ccc(OC)c(CCNC(=O)CS(=O)(=O)Cc2nc(-c3ccccc3C)oc2C)c1	-4%
O=C(Nc1nnc(-c2ccco2)o1)c1cccc(Cl)c1	-5%
CN(c1ccccc1)P(=O)(N(C)c1ccccc1)N(C)c1ccccc1	0%
CCOC(=O)c1c(NC(=O)CS(=O)(=O)c2ccc(C)cc2)sc2c1CCC(C)C2 (stereo unspecified)	-8%
COc1ccc(COCC(O)CN2CC(C)OC(C)C2)cc1OC (stereo unspecified)	-3%
CC(C)COc1cccc(C(=O)Nc2ccc(-c3nc4ncccc4o3)cc2)c1	2%
CCc1ccc(OCC2c3cc(OC)c(OC)cc3CCN2C(=O)c2ccc(S(=O)(=O)N3CCCC3)cc2)cc1 (stereo unspecified)	-4%
CCOC(=O)c1cccc(P(C)(C)=O)c1	1%
Cc1occc1C(=O)Nc1cccnc1	0%
O=C(COc1ccc([N+](=O)[O-])cc1)N(C1CCCCC1)C1CCS(=O)(=O)C1 (stereo unspecified)	-5%
CC(=O)c1ccc(OCCCC(=O)OCC(=O)N2CCN(c3ccccc3)CC2)cc1	-6%
O=C(NCc1ccccn1)c1cc(-c2ccc(Cl)cc2)nc2ccccc12	1%
COC(=O)c1ccc(CNC(=O)COC(=O)c2cc(Cl)ccc2O)cc1	-1%
COc1cc(C2CC(=O)c3c(ccc4ccccc34)N2)ccc1O (stereo unspecified)	-7%
CCOc1ccc(C2C3=C(CC(C)(C)CC3=O)N(CC(=O)O)C3=C2C(=O)CC(C)(C)C3)cc1OCC	-7%
Cc1cccc2cc(C(c3nnnn3Cc3ccccc3)N3CCN(c4ccccc4)CC3)c(=O)[nH]c12 (stereo unspecified)	-4%
COc1ccc(-c2cc(C(F)(F)F)n3nc(C(=O)Nc4sc5c(c4C#N)CCC(C)C5)cc3n2)cc1OC (stereo unspecified)	-14%
CN(Cc1nc(-c2ccc3c(c2)OCO3)no1)CC1(N2CCOCC2)CCCCC1	-6%
COC(=O)c1ccc(Cn2cnc3c(sc4nc(N5CCOCC5)c5c(c43)CCCC5)c2=O)o1	-18%
O=C(COc1cc(F)ccc1[N+](=O)[O-])N1N=C(c2cccs2)CC1c1ccco1 (stereo unspecified)	-14%
Cc1ccc(Cn2nc(C)c(NC(=O)CCCn3nc([N+](=O)[O-])c(Cl)c3C)c2C)cc1	2%
CCOC(=O)c1ccc(N2CCOCC2)c(NC(=O)c2c(-c3ccccc3)noc2C)c1	-5%
O=C(O)c1ccc(Nc2nc(-c3ccccc3)cs2)cc1	-3%

(list continues)
molecule	GCN5L2 inh
CN(C)c1ccc(C(=O)c2ccc(N(C)C)c3ccccc23)cc1	-11%
O=C(CCSc1nc(-c2ccco2)cc(C(F)(F)F)n1)Nc1ccc2c(c1)OCO2	3%
COc1ccc(NC(=O)CN(C)C(=O)CSCc2ccc(C)cc2)cc1	-3%
O=C(c1ccc(F)cc1)N1CCN(C2CC3CCC2C3)CC1 (stereo unspecified)	-5%
CCOC(=O)C1(O)Oc2cc(OC)cc(OC)c2C(=O)C1c1ccccc1 (stereo unspecified)	-9%
O=C(N/N=C\c1ccccn1)C1c2ccccc2Oc2ccccc21	-2%
CCOC(=O)c1ccc(-c2c(-c3ccccc3OC)oc3ccccc23)cc1F	-18%
Cn1c(-c2ccc(F)cc2)cnc1NCc1ccc(F)cc1	-11%
COc1ccccc1Cc1noc(C(C)(C)NC(=O)c2ccccc2)n1	-3%
COc1ccc(OC)c(C2CC(=O)Nc3c2c(=O)[nH]c2ncnn32)c1 (stereo unspecified)	-5%&-2%
COc1ccc(-c2cc(C(=O)NC(C)c3ccccc3)c3cc(C(C)C)ccc3n2)cc1 (stereo unspecified)	1%
Cc1ccc(CSc2nnc(CS(=O)Cc3ccc(Cl)cc3Cl)n2C)cc1 (stereo unspecified)	-3%
Cc1cccnc1NC(=O)c1ccc(OCc2c(C)noc2C)cc1	-4%
CCOC(=O)c1ccc(NC(=O)Nc2c[nH]c(=O)[nH]c2=O)cc1	19%
CCOC(=O)CNC(=O)COc1coc(CN2CCN(c3ccccc3)CC2)cc1=O	7%
CCCCN1C(=O)CCC(C(=O)O)C1c1ccccc1 (stereo unspecified)	-1%
COc1cc2c(OC(C)=O)c3c(c(-c4ccc5c(c4)OCO5)c2cc1OC)C(=O)OC3	-1%
CN1CCN(NC(=O)Nc2cccc(F)c2)CC1	-1%
Cn1ncc(Cl)c1C(=O)N1CCN(c2ccc(Cl)c(Cl)c2)CC1	-7%
CC(=O)N1[C@H](Cc2ccccc2)C=C[C@]1(C)C(=O)NCCc1c[nH]c2ccccc12	-2%
CC1(C(=O)O)C=CCN1C(=O)c1ccccc1 (stereo unspecified)	-2%
CCOc1cccc(NC(=O)CSc2ncc(-c3ccc(Cl)cc3)[nH]2)c1	-5%
CN(c1ccccc1)S(=O)(=O)c1cccc(C(=O)Nc2nccs2)c1	-14%
COc1ccc(Cl)cc1NC(=O)c1cnc2sc(N3CCOCC3)nn2c1=O	3%
CCC(CO)Oc1cc(NC(=O)c2ccc(N)cc2)c2ncn(C(C)C)c2c1 (stereo unspecified)	-10%

Random excerpt: three entries already listed, in no set order.
molecule	GCN5L2 inh
Cc1cccnc1NC(=O)c1ccc(OCc2c(C)noc2C)cc1	-4%
CCOC(=O)CNC(=O)COc1coc(CN2CCN(c3ccccc3)CC2)cc1=O	7%
CN1CCN(NC(=O)Nc2cccc(F)c2)CC1	-1%

6 of the compounds above, with values ahead of the structure.
GCN5L2 inh	SMILES
19%	CCOC(=O)c1ccc(NC(=O)Nc2c[nH]c(=O)[nH]c2=O)cc1
7%	CCOC(=O)CNC(=O)COc1coc(CN2CCN(c3ccccc3)CC2)cc1=O
-1%	CCCCN1C(=O)CCC(C(=O)O)C1c1ccccc1 (stereo unspecified)
-1%	COc1cc2c(OC(C)=O)c3c(c(-c4ccc5c(c4)OCO5)c2cc1OC)C(=O)OC3
-1%	CN1CCN(NC(=O)Nc2cccc(F)c2)CC1
-7%	Cn1ncc(Cl)c1C(=O)N1CCN(c2ccc(Cl)c(Cl)c2)CC1

Carrying on:
molecule	GCN5L2 inh
O=C1NC[C@H](c2ccccc2)OC(=O)[C@@H](Cc2ccc(F)cc2)CC/C=C/C[C@@H]1CC(=O)N(CCO)Cc1ccccc1	-6%
CCS(=O)(=O)N1CCN=C1SCc1cccc(F)c1	-1%
CCOC(=O)c1c(C(=O)OCC)c(C)n(Cc2cc(OC)c(OC)c(OC)c2)c1C	0%
Cc1ccc(S(=O)(=O)NC(=O)COc2ccccc2C)cc1	0%
Cc1ccc(C)c(S(=O)(=O)c2nnn3c2nc(NCc2cccs2)c2sccc23)c1	-15%
COc1ccc(Cn2c(CCC(=O)Nc3ccc(CC#N)cc3)nc3cccnc32)cc1	?
c1cn(-c2ncnc3sc4c(c23)CCCC4)cn1	-2%
O=C(COC(=O)c1ccc(Cl)cc1)NCC1CCCCC1	-8%
O=C(NCc1ccncc1)C1CCN(S(=O)(=O)c2cccc(C(F)(F)F)c2)CC1	-3%
O=C(O)C1CC=CCC1C(=O)Nc1cccnc1 (stereo unspecified)	0%
COCCCNC(=S)N/N=C/c1ccc(N(C)C)cc1	-5%
C/C(Nc1ccc(F)cc1)=C(/C#N)C(N)=O	-4%
C/C(=N\OCC(=O)O)c1ccc(Cl)cc1	-3%
COc1cc(C2N(c3ccc(Cl)cc3)C(=O)C3CCCN32)cc(OC)c1OC (stereo unspecified)	2%
COc1cccc(C(C(=O)NC2CCCC2)N(CC2CCCO2)C(=O)Cc2cccs2)c1 (stereo unspecified)	-3%
O=C(Cc1ccc(Cl)cc1)Nc1ccc(SC(F)F)cc1	-8%
COc1cc(OC)cc(C(=O)N[C@H](C(=O)OCC(=O)Nc2ccc(OC)c(OC)c2)C(C)C)c1	-4%
CC1(C)CC(=O)C2=C(C1)N(c1ccc(F)cc1)C(=O)C2(NC(=O)c1ccccc1F)C(F)(F)F (stereo unspecified)	0%
COc1ccccc1NC(=O)CSc1nnc(C)o1	-4%
COc1ccccc1N(C)S(=O)(=O)c1ccc(C(=O)NNC(=O)c2ccccc2O)cc1	-8%
COc1ccc(NC(=O)c2ccccc2N2C(=O)C3C4C=CC(C5CC45)C3C2=O)c(OC)c1 (stereo unspecified)	-5%
FC(F)(F)c1cccc(N2CCN(CC3CC4C=CC3C4)CC2)c1 (stereo unspecified)	-19%
O=C(NC[C@@H]1CCCO1)c1cccc2c1C(=O)c1ccc(N3CCOCC3)cc1S2(=O)=O	-5%
O=C(Nc1cccc(C(F)(F)F)c1)C1C2CC3OC(=O)C1C3C2 (stereo unspecified)	-7%
CC(=O)c1cc(C#N)c(SCc2ccccc2)nc1C	-9%
N#CCC(=O)Nc1ccc(C(=O)N2CCN(c3ccccn3)CC2)cc1	-2%
O=C(Cc1nnc(NC(=O)c2cccc([N+](=O)[O-])c2)s1)NCc1ccccc1	?
CC(C)/C=C1\CCCCC1N(C)C(=O)NC(C)C (stereo unspecified)	-1%
CC(=O)Nc1ccc(S(=O)(=O)N2CCN(C(=O)c3ccccc3F)CC2)cc1	-2%
COC(=O)C1CSc2[nH]c(=O)sc2C1c1ccc(OC)c(OC)c1 (stereo unspecified)	-8%
CCc1ccc(C(=O)CCC(=O)Nc2cccc(S(=O)(=O)N3CCCCC3)c2)cc1	-15%
Cn1nnc2cc(C(=O)Nc3cccnc3)ccc21	-2%
C/C(=N\O)C1(C)N(O)C(C)(C)C(c2ccco2)=[N+]1[O-] (stereo unspecified)	13%
O=C(CSc1nnc(Cc2cc(=O)[nH]c(=O)[nH]2)n1-c1ccc(Cl)cc1)NCC1CCCO1 (stereo unspecified)	-5%
COc1ccc(C2CC(c3ccc4ccccc4c3)=NN2C(=O)CSc2ncccn2)cc1 (stereo unspecified)	-2%
COc1cc(NS(=O)(=O)c2ccc(NC(=S)NC(=O)c3ccccc3)cc2)nc(OC)n1	-5%
CCN1C(=O)c2cccc3c(S(=O)(=O)N(C(C)=O)c4ccc(OC(C)=O)cc4)ccc1c23	?
O=C(NNc1ncnc2c1cnn2-c1ccccc1)c1cccs1	-8%
COc1ccccc1NC(=O)c1sc2nc(-c3cc4ccccc4oc3=O)[nH]c(=O)c2c1C	2%
FC(F)(F)c1ccc(Cl)c(-n2c(-c3cc(-c4ccco4)[nH]n3)n[nH]c2=S)c1	-6%
CCCCn1cc(C(=O)c2cc(Br)ccc2O)cc(C#N)c1=O	23%

Some of the compounds tested, and most or all hits are left out here.
